High-throughput results (PubChem)
BJeLR viability: kills HRASV12-expressing BJeLR cells; BJeLR (HRASV12) viability, CellTiter-Glo ATP luminescence, 48 h; reference of the scale not given here; inhibition, % (no concentration beside the values); 300,000 compounds, 0.17% hits;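 active = replicate mean above 50%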;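 also: 50 nL library stock added to about 25 µL; numbers are from one replicate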
Sa RN4220 lethal: kills Staphylococcus aureus RN4220; S. aureus RN4220 growth, OD600, 16 h; inhibition, % (no concentration beside the values); 330,000 compounds, 0.33% hits;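 active = z-score of -3 or lower and OD600 up to 0.18 on both plates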;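 also: plate controls were untreated cells for no effect and reference antibiotic for full effect; stock transfer was 100 nL into about 80 µL; one replicate is shown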
Sa ugtP lethal: kills S. aureus RN4220 lacking UgtP; growth inhibition, % (test concentration not listed); S. aureus RN4220 ugtP deletion, OD600 growth, 16 h; some inactives read as strong as hits; 330,000 compounds, 0.54% hits;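 active = z-score under -3 and OD600 up to 0.15 on both plates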;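 also: plate controls were untreated wells for no effect and antibiotic for full effect; wells of about 80 µL received 100 nL stock; the first replicate is given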
Bead autofluor: compound fluorescence in toxin protease inhibitor counterscreen | compound autofluorescence counterscreen, microsphere flow cytometry; hits give high values | fluorescence intensity (test concentration not listed) | 360,000 compounds, 3.1% hits | AID 624483;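 active = at least 3 SD above the mean of all compounds, about 16000 in these data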;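 also: 100 nL of 1 mM stock went into each well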
PrP UTR inh: inhibition of PrP 5' UTR reporter expression; inhibition, % (no concentration beside the values); cell-based PrP 5' UTR mRNA reporter, plate reader; 340,000 compounds, 0.35% hits;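 active = every replicate at 50% or more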;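 also: 0 = median of the neutral control wells; tested in H4 reporter cells; numbers are from one replicate; inactives centre near -14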
Mtb hypoxia rep: Mtb hypoxia fluorescent reporter inhibition; M. tuberculosis hypoxia-regulated fluorescent reporter, fluorescence; fluorescence inhibition, % (concentration not given with the values); 300,000 compounds, 0.1% hits; AID 1159583;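 active = 35 to 45% if threefold the growth effect, above 45% if 1.5-fold the growth effect; inactive = the rest, general growth blockers included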;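 also: wells of about 50 µL received 100 nL stock; 0% = vehicle wells and 100% = reference inhibitor wells; whole bacteria with a GFP reporter of the hypoxia response; strong numbers were not always called active; many hits fall short of the cut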
Mtb hypoxia rep growth: recorded beside Mtb hypoxia rep, whose call it bears; growth inhibition, %; measured here: M. tuberculosis growth (absorbance);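 0% = vehicle and 100% = reference antibiotic; read after six days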
* = called active by the depositor; / = no result given; & = joins results of further samples.

SMILES	BJeLR viability	Sa RN4220 lethal	Sa ugtP lethal	Bead autofluor	PrP UTR inh	Mtb hypoxia rep	Mtb hypoxia rep growth
C[C@]1(O)CC[C@H]2[C@@H]3CCC4=CC(=O)CC[C@]4(C)[C@@]3(F)[C@@H](O)C[C@@]21C	/	5.3	7	4910	-4	/	/
NC(=O)C1CCN(Cc2nc3ccccc3c(=O)[nH]2)CC1	4	3.7	-2	23828*	2	6	7
O=C(CCn1cccn1)Nc1ccc(-c2ccno2)cc1	6	1.7	5	6453	-18	4	1
CC(C)(C)C(=O)C1=C(O)C(=O)N(c2ccccc2)C1c1ccccc1 (stereo unspecified)	-14	11	6	3821	-11	4	10
CN(CC(=O)Nc1ccncc1)S(=O)(=O)c1ccc(Br)cc1	-14	2.6	8	7812	-7	-4	-2
Cc1cc(C(=O)NN=C2CC(=O)CC(C)(C)C2)c(C)n1-c1ccccc1	/	1.4	11	/	/	-4	-6
CCCc1ccc(-c2c(C)sc(NC(=O)c3ccnn3C)c2C#N)cc1	20	-0.1	7	/	-35	23	15
O=C(Nc1cc(S(=O)(=O)N2CCOCC2)ccc1N1CCOCC1)C1CCCO1 (stereo unspecified)	4	6.8	-4	3378	-38	4	6
Cc1c(C(=O)O)cccc1-n1c(C)cc(C=O)c1C	8	2.4	0	4404	-28	4	9
CCc1cccc(C)c1NC(=O)COC(=O)CSCc1ccccc1	/	2.3	1	3499	-11	8	9
CC1CCCN(S(=O)(=O)c2ccc3c(c2)C(C)(C)C(=O)N3C)C1 (stereo unspecified)	-10	1.7	7	6179	-3	/	/
Cc1ccc(CSCC(=O)Nc2ccccc2F)cc1	-4	4.8	5	3966	-23	3	17
CC(C)CC(NC(=O)c1[nH]cnc1C(=O)NC(C)c1ccccc1)C(=O)OCc1ccccc1 (stereo unspecified)	/	-4.3&-3.1	-3&-12	/	/	2&8	0&7
Cc1c(OCc2nn[nH]n2)ccc2c(-c3ccccc3)cc(=O)oc12	2	7.5	12	9006	-32	14	11
Cc1ccc(C(=O)N/C(=C/c2ccco2)C(=O)N2CCC(C)CC2)cc1	-2	2.4	-3	5419	-22	-6	0
COc1ccc(NC(=O)CCC(=O)N(Cc2ccc(OC)c(OC)c2)c2nccs2)c(OC)c1	-3	7.2	12	4821	5	10	2
O=C(CSc1nc2ccccc2o1)NN=Cc1ccccc1	/	1.1	1	/	/	3	-11
Cc1cc(C)nc(NC(=O)c2cccc([N+](=O)[O-])c2C)n1	3	3.5	-3	3239	-19	/	/
CCCCCCSc1ccc(C2N[C@@](Cc3ccccc3)(C(=O)OC)C3C(=O)N(C)C(=O)C23)cc1OC (stereo partly specified)	/	-1.4	-22	/	/	-2	5
CCSc1nnc(N(CCC(=O)O)CCC(=O)O)s1	-1	4.5	1	2425	-16	/	/

2 of the compounds above, in CSV form:
SMILES,BJeLR viability,Sa RN4220 lethal,Sa ugtP lethal,Bead autofluor,PrP UTR inh,Mtb hypoxia rep,Mtb hypoxia rep growth
Cc1ccc(C(=O)N/C(=C/c2ccco2)C(=O)N2CCC(C)CC2)cc1,-2,2.4,-3,5419,-22,-6,0
COc1ccc(NC(=O)CCC(=O)N(Cc2ccc(OC)c(OC)c2)c2nccs2)c(OC)c1,-3,7.2,12,4821,5,10,2

(list continues)
SMILES	BJeLR viability	Sa RN4220 lethal	Sa ugtP lethal	Bead autofluor	PrP UTR inh	Mtb hypoxia rep	Mtb hypoxia rep growth
COc1ccc(CN(C(=O)/C=C/c2ccco2)C2CCS(=O)(=O)C2)cc1 (stereo unspecified)	-12	9.6	3	5497	-10	13	12
CC(C)Cn1c(N)c(C(=O)CSc2n[nH]c(N)n2)c(=O)n(C)c1=O	/	-0.1	6	3532	-21	4	1
O=C(CN1CCN(c2ccc(Cl)cc2)CC1)NCc1ccccc1	5	0.8	2	2026	-14	3	9
N#CC(Cc1cc2ccccc2n1S(=O)(=O)c1ccccc1)OCc1ccccc1 (stereo unspecified)	/	-0.4	8	3890	-18	0	-2
COc1ccc(C(=O)Nc2cc(-c3ccc(C)cc3)no2)cc1	3	0.5	1	2953	-20	6	-9
Cc1ccc(/C=N/N=C/c2ccc(C)cc2)cc1	-18	/	/	2348	-10	/	/
CC(CC(=O)Nc1ccc(Cl)c([N+](=O)[O-])c1)c1ccccc1 (stereo unspecified)	0	-5.2	-24	3270	6	/	/
CCOc1ccc(N(CC(=O)Nc2ccc(OC)cc2)S(C)(=O)=O)cc1	-4	-2.9	-3	4888	-48	/	/
O=c1c2c(-c3ccc(Cl)cc3)csc2nc2n1CCC2	3	4.3	13	8284	16	2	4
Cc1ccc(-c2nsc(SCC(=O)Nc3ccc4c(c3)OCO4)n2)cc1	1	-7.0	-7	2147	-5	15	7
Cc1cc(C)c(OCCN2CCCC2)c(Cl)c1	0	5.3	9	/	2	5	-2
Cc1[nH]c2ccccc2c1/C=N/NC(=O)CNC(=O)c1ccc2c(c1)OCCO2	-4	/	/	4367	5	/	/
CCOc1ccc(-n2c(=O)c3c(C)c(C(=O)N(C)C)sc3n(CC(=O)Nc3ccccc3F)c2=O)cc1	4	6.6	4	4199	-16	3	-4
Cc1c(Cl)cccc1NC(=S)NNS(=O)(=O)c1ccc([N+](=O)[O-])cc1	10	-3.1	8	5627	-5	8	7
Cc1cc(S(=O)(=O)NCc2ccccc2)ccc1OCC(=O)N1CCN(C)CC1	-7	2.8	-10	8455	-5	-5	12
O=C(Cc1ccccc1[N+](=O)[O-])NNC(=O)c1cccs1	/	4.7	6	4438	-9	-3	6
O=C(O)CCC(=O)NC1CCCCC1	-13	6.3	12	8294	-1	10	9
Cc1nc(N)nc2c1CCCC2	-5	5.5	5	2490	-9	7	10
O=C(CSc1nc(-c2ccco2)cc(C(F)(F)F)n1)N1CCCc2ccccc21	6	7.5	-3	2415	2	-5	3
COC(=O)C1CCCN1C(=O)C(NC(=O)OC(C)(C)C)C(C)C (stereo unspecified)	/	3.9	0	/	/	-7	3

The closing 3 compounds of the section above lead into the next.
SMILES	BJeLR viability	Sa RN4220 lethal	Sa ugtP lethal	Bead autofluor	PrP UTR inh	Mtb hypoxia rep	Mtb hypoxia rep growth
Cc1nc(N)nc2c1CCCC2	-5	5.5	5	2490	-9	7	10
O=C(CSc1nc(-c2ccco2)cc(C(F)(F)F)n1)N1CCCc2ccccc21	6	7.5	-3	2415	2	-5	3
COC(=O)C1CCCN1C(=O)C(NC(=O)OC(C)(C)C)C(C)C (stereo unspecified)	/	3.9	0	/	/	-7	3
CCOc1cc(NC(=S)NCC2CCCO2)c(OCC)cc1NC(=O)c1cccc(F)c1 (stereo unspecified)	-4	7.4	9	4432	-27	2	7
NS(=O)(=O)c1cccc(NC(=O)COC(=O)CC2CC3CCC2C3)c1 (stereo unspecified)	3	-3.5	2	4517	0	-7	7
COc1cccc(-n2cc(CNC(=O)C3CCC(=O)N(C4CC4)C3)cn2)c1 (stereo unspecified)	-1	2.1	3	5361	-16	5	8
COC(=O)C=c1sc2nc3ccccc3n2c1=O	/	14	15	/	/	15	6
COc1cc(CNn2cn[nH]c2=S)cc(Cl)c1OCc1ccccc1	-1	9.9	25	9304	-13	11	0
O=C(NCc1cccnc1)C1CC(=O)N(C2CCCCC2)C1 (stereo unspecified)	-3	-1.3	0	11143	-5	-4	1
COc1ccc(OC)c(NC(=S)N2CCC(C(O)(c3ccccc3)c3ccccc3)CC2)c1	-5	-2.6	0	2040	-22	-8	6
O=C(CCN1C(=O)c2ccccc2C1=O)N1CCN(c2ccccc2)CC1	3	4.4	3	9485	-4	2	2
CCOCCCNC(=O)C(NC(=O)C1CCC(=O)N1)c1ccc(C)cc1 (stereo unspecified)	1	6.2	5	3567	-20	/	/
Nn1c(Cc2ccccc2F)nnc1SCCOc1ccc(Cl)cc1	9	-3.7	10	2181	-18	-2	3
COc1ccc(NC(=O)CN(C)C(=O)c2cccc(S(=O)(=O)Nc3ccccc3Cl)c2)cc1	-20	4.3	3	4538	-24	3	2
CCC(C)NS(=O)(=O)c1ccc(S(=O)(=O)Nc2cc3c(cc2C(C)=O)OCO3)cc1 (stereo unspecified)	-1	7.2	6	12543	-19	13	-1
Cc1cc(C)c(S(=O)(=O)Nc2ccccn2)c(C)c1	12	4.0	5	4011	-22	7	6
Cc1ccccc1NC(=O)Cc1nnc(SCC(=O)c2ccc(Br)cc2)n1C	-23	-0.7	1	18692*	-8	2	5
CCSC1=NN2CCS(=O)(=O)N=C2S1	7	3.9	-3	4395	-19	6	4
COc1ccc2c(CC(=O)OCC(=O)Nc3cccc(C)c3)coc2c1	/	0.1	1	3454	-24	8	8
N#C/C(C(=O)Oc1ccccc1)=C1\C=Cc2ccccc2N1	1	1.6	-7	4639	-32	2	13
COc1ccc(Oc2c(Cl)cnn(-c3ccccc3)c2=O)cc1	2	3.9	10	5093	-15	/	/
NNS(=O)(=O)c1ccc(Cc2ncc(C(F)(F)F)cc2Cl)s1	6	4.0	-9	3759	-3	4	8
CCc1c(C)nc2cc(-c3cccc(Br)c3)[nH]n2c1=O	-5	2.7	-8	3187	-98	-7	7
COCCN1CCN(C(=O)c2cc(COc3cncc(Cl)c3)on2)CC1	-4	0.6	0	4580	-2	4	1
O=C(COC(=O)Cc1n[nH]c(=O)c2ccccc12)Nc1ccc(Cl)cc1F	22	2.1	12	5989	-15	6	-2
Cc1ccc(C)c(NC(=O)CN(C)C(=O)c2cccc(S(=O)(=O)N3CCN(Cc4ccccc4)CC3)c2)c1	-1	1.3	6	5101	-20	1	3
O=Cc1cn(Cc2ccccc2[N+](=O)[O-])c2ccccc12	-4	2.3	-8	2644	2	6	-2
COc1cc(/C=C(\NC(C)=O)C(=O)Nc2ccc(NC(C)=O)cc2)ccc1OC(C)=O	5	/	/	2509	5	/	/
CSc1cccc(NC(=S)N(CCCN2CCCC2)Cc2cccs2)c1	8	3.6	8	4563	-14	16	5
COc1ccc(S(=O)(=O)NCc2ccc(C(=O)N(C)Cc3ccco3)cc2)cc1	3	6.2	6	10924	1	4	0
CC(C)(CC(=O)O)CC(=O)Nc1ccccc1Oc1ccccc1	5	1.5	-7	5849	-26	5	15
O=C(CSc1nc2ccc(Nc3nc(N4CCOCC4)nc(N4CCOCC4)n3)cc2s1)NCc1ccco1	-4	3.3	6	4581	-4	-3	19
CC(=O)N1N=C(c2ccco2)CC1c1ccc(Cl)o1 (stereo unspecified)	5	4.7	5	5374	-17	4	3
CC(C)CCNC(=O)c1ccc2c(SCC(=O)O)c3c(nc2c1)CCCC3	-18	4.8	9	9908	-11	10	7
Cc1cccc(C(=O)OCCN2CCOCC2)c1	1	3.0	13	3053	-26	8	-6
Cc1[nH]c2ccccc2c1Cc1n[nH]c(=S)o1	4	4.5	4	5800	5	/	/
O=C(Cn1nnc(-c2ccc(N3CCOCC3)cc2)n1)OC1CCCCC1	-10	4.3	3	21996*	-7	-1	3
CC12CN3CCN(CC(C3)C1=NN=C1C3CN4CCN(C3)CC1(C)C4)C2	/	1.6	5	/	/	12	16
O=C1c2ccccc2S(=O)(=O)c2cc(C(=O)N3CCCC3)ccc21	-3	9.7	1	3299	-71	3	5
Cc1ccc(NC(=O)[C@@H](NC(=O)N2C[C@H]3C[C@@H](C2)c2cccc(=O)n2C3)C(C)C)cc1	-2	2.1	0	4847	-39	/	/
Cc1cccc(N2CCN(c3cccc(C)c3)C2c2cccnc2)c1	7	0.9	-2	4318	-11	0	6
O=S(=O)(c1ccccc1)N1CC1c1ccccc1 (stereo unspecified)	10	-0.5	4	2046	-37	1	-1
Cc1ccc(C(=O)OCC(=O)NC2CCCCC2)s1	0	0.3	7	4360	-12	4	5
COC(=O)C1=C(c2c(C)noc2C)CC2CCC1N2C(=O)N1CCC(O)(c2ccc(Cl)cc2)CC1 (stereo unspecified)	/	6.1	0	/	/	5	3
COC(=O)CNC(=O)c1ccccc1F	-8	-0.1	7	5959	-6	8	-1
COc1ccc(C(=O)NCC2CCCO2)cc1OC (stereo unspecified)	-3	5.1	6	3758	-39	-2	-2
C=CCn1c(SCc2nc3sc(C(=O)O)c(C)c3c(=O)[nH]2)nnc1-c1ccc(C(C)(C)C)cc1	9	1.6	6	4291	-14	-13	3
O=C(NNc1ccccc1[N+](=O)[O-])Nc1ccc(Cl)c(Cl)c1	-16	3.3	9	2303	0	15	7
NNC(=O)CSc1nnc(-c2ccccc2)n1-c1ccccc1	3	2.1	6	3710	-13	5	7
